D2 agonist: Beta-Arrestin HTS for Positive Allosteric Modulators of the Human D2 Dopamine Receptor: Agonists; D(2) dopamine receptor (Homo sapiens), P14416; DiscoveRx PathHunter D2 beta-arrestin, luminescence, 90 min; 100% = 57 uM dopamine signal; activation, % (concentration not given with the values); 360,000 compounds, 0.084% hits; AID 624465, 2012; in the data active = activation above about 40%; inconclusive = about 15% to 40%; inactive = below about 15%; note: the text of the record calls up to 30% inactive
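DiscoveRx PathHunter D2 beta-arrestin cells (2,100/well) attached overnight, then compound-stimulated 90 min at 37 C in HBSS/10 mM HEPES/0.1% Tween-20 buffer; beta-galactosidase complementation read by luminescence after 1 h at ambient temperature. Dopamine 57 uM final (EC100) as control.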
Six1-Eya2 blk: qHTS Assay for Inhibitors of the Six1/Eya2 Interaction | 360,000 compounds, 0.56% hits | AlphaScreen GST-Six1/His-Eya2 binding, biochemical; hits give low values; control for the full effect not named in the record | AID 651725, 2012 | activity change, % (concentration not given with the values); in the data active = activity change below about -65%; inconclusive = about -30% to -65%; inactive = above about -30%; note: % is set by controls: 0 for no effect and ±100 for the full control effect
Target sequence (O00167 whole entry, looked up): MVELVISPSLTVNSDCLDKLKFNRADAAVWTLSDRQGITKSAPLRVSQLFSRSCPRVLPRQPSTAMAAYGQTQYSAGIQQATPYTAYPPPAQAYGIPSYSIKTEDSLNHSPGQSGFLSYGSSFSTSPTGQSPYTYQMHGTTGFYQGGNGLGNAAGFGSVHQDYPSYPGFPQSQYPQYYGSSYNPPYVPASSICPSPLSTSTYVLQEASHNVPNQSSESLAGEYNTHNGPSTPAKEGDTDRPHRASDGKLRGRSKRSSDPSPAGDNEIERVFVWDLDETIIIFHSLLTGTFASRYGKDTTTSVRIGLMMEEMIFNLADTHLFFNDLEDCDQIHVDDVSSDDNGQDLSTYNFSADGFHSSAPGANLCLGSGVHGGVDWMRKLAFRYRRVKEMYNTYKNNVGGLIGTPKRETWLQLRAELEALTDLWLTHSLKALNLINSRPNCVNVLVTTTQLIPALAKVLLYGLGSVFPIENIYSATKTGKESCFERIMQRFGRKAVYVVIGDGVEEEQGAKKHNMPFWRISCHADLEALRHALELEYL
Target sequence (Q15475 whole entry, looked up): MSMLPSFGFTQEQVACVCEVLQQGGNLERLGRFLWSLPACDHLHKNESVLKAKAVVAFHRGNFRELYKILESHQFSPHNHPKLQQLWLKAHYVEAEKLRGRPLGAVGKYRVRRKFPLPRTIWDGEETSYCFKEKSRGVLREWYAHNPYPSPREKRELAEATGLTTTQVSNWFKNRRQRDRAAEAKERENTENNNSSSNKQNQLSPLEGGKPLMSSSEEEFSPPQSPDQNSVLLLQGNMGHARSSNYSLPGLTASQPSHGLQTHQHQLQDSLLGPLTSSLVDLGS
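Compounds are tested against tagged Six1 and Eya2 proteins bridged by glutathione donor and nickel acceptor beads; after a one-hour incubation at 37 °C without light, AlphaScreen emission is recorded.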
TRPML1 blocker: qHTS for Inhibitors of the Human Mucolipin Transient Receptor Potential 1 (TRPML1). activity change, negative = inhibition, % (test concentration not listed). AID 624415, 2012. TRPML1-inducible cells, Ca2+ dye fluorescence, FDSS; hits give low values; inhibition of EC80 agonist-evoked calcium signal. Mucolipin-1 (Homo sapiens), Q9GZU1. 390,000 compounds, 0.02% hits; in the data active means activity change below about -50%; inconclusive means about -30% to -50%; inactive means above about -30%;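 note: stimulus is agonist 54-4 at its EC80 concentration; % is set by controls: 0 for no effect and ±100 for the full control effect; compound concentration not given in the record; the text of the record puts the active cut at -80%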
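Calcium fluorescence in TRPML1-DL cells induced overnight with Tet: a 110 s read after compound pin addition, then a 110 s antagonist read after challenge with 54-4 at 4 uM final (EC80).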
TRPML1 ag: qHTS for Agonists of the Human Mucolipin Transient Receptor Potential 1 (TRPML1); activation, % (test concentration not listed); TRPML1-expressing cells, Ca2+ dye fluorescence, FDSS; host cell line not named in the record; reference of the full effect not given here; Mucolipin-1 (Homo sapiens), Q9GZU1; 410,000 compounds, 0.12% hits; in the data active = activation above about 50%; inconclusive = about 30% to 50%; inactive = below about 30%; note: 0% is about no effect; the text of the record puts the active cut at 80%
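Tet-induced TRPML1-DL cells, 1,500 per well, cultured overnight, were loaded with a no-wash Ca2+ dye for 45–90 min. Calcium fluorescence was recorded on the FDSS for 110 s after compound addition, before the EC80 agonist (4 uM 54-4) was added.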
D2 potentiator: Beta-Arrestin HTS for Positive Allosteric Modulators of the Human D2 Dopamine Receptor: Potentiators; D(2) dopamine receptor (Homo sapiens), P14416; DiscoveRx D2 beta-arrestin cells, luminescence, 90 min; 100% = 57 uM dopamine signal; potentiation, % (test concentration not listed); 360,000 compounds, 0.23% hits; active = potentiation of 50% or more; inconclusive = 30% to 50%; inactive = 30% or less;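 note: compound concentration not given in the record; tested on top of an EC20 dose of dopamine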
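PathHunter beta-arrestin assay in DiscoveRx D2 cells. Compounds were added with an EC20 of dopamine (50 nM final) for 90 min at 37 deg C. Luminescence was read 1 h after detection reagent, with 57 uM dopamine as the EC100 control.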
PINK1 modulator: A Quantitative High throughput Screen to Identify Chemical Modulators of PINK1 Expression; 410,000 compounds, 0.2% hits; Potency, µM (highest dose often 76.6 µM), inactives show top-dose activation (PINK1 increase), actives largely listed as activators; PINK1 immunofluorescence, high-content cytometry, 24 h; active = well fitted activation curve with a large enough effect; inconclusive = small, poorly fitted or top-dose-only effect; inactive = flat fitted curve, though single readings scatter; cell line not stated here;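 note: potency is the fitted concentration of half-maximal effect; % of control where 0% means no effect; nearly all actives have a fitted effect of over 65% in size; a mitochondrial uncoupler was the plate control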
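Cells are seeded, rested 12 hours, then given compound at five concentrations or DMSO for 24 hours. After fixation, blocking and antibody staining, PINK1 amount and mitochondrial localization are scored; CCCP serves as control.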
Active calls of the source: *; ? = inconclusive; / = no result given; & = joins results of further samples; [ ] = remark or other dose.

Molecule	D2 agonist	Six1-Eya2 blk	TRPML1 blocker	TRPML1 ag	D2 potentiator	PINK1 modulator
CCOC(=O)C(C)C(C)=O (stereo not given)	12.0	-5.1	-2.8	1.4	-7.0	-0.9%
COc1ccccc1CNS(=O)(=O)CC12CCC(CC1=O)C2(C)C (stereo not given)	-2.4	4.0	-13.2	-1.2	4.5	3.7%
Cc1cc2c(NCc3ccccc3)ncnc2s1	12.4	5.6	4.9	0.2	-4.5	1.4%
Cc1ccc(S(=O)(=O)N(Cc2ccc(F)cc2)C(=O)N2CCN(C)CC2)cc1	-0.7	3.7	13.1	0.7	0.9	-1.8%
Cc1ccccc1OCC(O)Cn1c(NCc2ccccc2)nc2c1c(=O)[nH]c(=O)n2C (stereo not given)	4.7	8.7	16.9	3.5	-16.8	4.8%
C=C(C)CN1C(=O)C2(OCCO2)c2ccccc21	-0.7	-0.8	10.2	-0.8	-1.9	4.6%
O=C(C1COc2ccccc2O1)N1CCN(c2ccccc2)CC1 (stereo not given)	-0.8	-2.5	-13.8	3.0	-13.1	-1.5%
CCOC(=O)CSc1ncnc2c1cnn2-c1ccc(C)cc1	-2.0	-1.2	5.1	-0.2	-8.8	0.1%
CC(C)c1ccc(NC(=O)CCC(=O)NCc2ccco2)cc1	1.1	-1.1	9.7	-1.3	-29.7	2.8%
CCCc1nnc(NC(=O)CCC(=O)N2CCCCC2)s1	1.5	4.8	-0.1	1.1	-0.9	2.0%
O=C(O)c1cccc2c1C(=O)c1ccc(-c3ccc(OC(F)(F)F)cc3)cc1S2(=O)=O	-1.0	-20.0	-21.5	-0.7	-10.1	0.1%
COc1cccc(C(=O)Oc2c(Br)cc(Br)cc2/C=N/NC(=O)c2cc(C)[nH]n2)c1	1.1	?	2.3	3.2	2.0	-0.1%
CCCc1nc2sc3c(SCC(=O)NCc4ccco4)ncnc3c2c2c1CCC2	-1.9	?	14.7	-0.8	-11.7	?
Cc1ccc(S(=O)(=O)N2CCN(C(=O)C(C)Cn3nc(C)c(C)c3C)CC2)cc1 (stereo not given)	-1.1	0.0	-4.4	-0.8	2.4	-0.8%
O=C(Nc1ccc(NC(=O)c2cccs2)cc1)c1ccccc1	3.6	13.6	-5.4	0.1	-0.7	10.2%
COc1ccc(S(=O)(=O)NCCc2csc(-c3ccc(F)cc3)n2)cc1	/	/	18.7	2.3	/	1.7%
O=C(O)C1=C[C@@H](C2CC2)C[C@@H](OCCCCO)O1	-1.8	-2.4	-6.2	-0.5	-42.9	0.2%
O=S(=O)(NC1CCCCC1N1CCC(O)CC1)c1ccccc1 (stereo not given)	-1.7	-2.4	3.8	-1.0	-2.2	-0.7%
COc1ccccc1CNC(=O)c1n[nH]c2ccccc12	1.9	5.8	-10.8	1.0	2.5	1.0%
CC1=C(C(=O)Nc2ccccc2C)C(c2ccc(C)o2)n2c(s/c(=C/c3ccccc3)c2=O)=N1 (stereo not given)	-1.9	-4.3	-3.9	1.9	-16.1	11.5%
Cc1nc(SC(C)C(=O)NC2CCCC2)c2ccccc2n1 (stereo not given)	-1.1	2.8	0.0	0.1	5.5	-1.3%
CCOC(=O)c1c(N)sc2c1CCN(CCc1ccccc1)C2	-4.0	6.7	4.1	-0.8	-53.6	2.6%
CC(=O)N1c2ccc(S(=O)(=O)N3CCCC(C(=O)Nc4ccc(F)cc4)C3)cc2CC1C (stereo not given)	-0.7	-1.6	1.7	0.0	-5.7	2.5%
Cn1c(SCC(=O)Nc2cccc(Br)c2)nnc1-c1cc2ccccc2o1	-2.1	-0.5	17.3	-0.3	12.7	-1.1%
Cc1ccc(NC(=O)Nc2nnc(N(C)C3CCCCC3)s2)c(Cl)c1	/	/	10.5	-0.7	/	3.6%
O=C(COC(=O)c1ccc(Br)o1)NCc1ccc(Cl)cc1	-3.6	-1.0	18.2	-0.3	-14.1	-0.5%
C=C(C)c1ccc(C(C)(C)NC(=O)N(Cc2ccccc2)Cc2ccco2)cc1	2.0	3.2	40.6	5.0	-19.9	11.2µM*
CCN(C(=O)COC(=O)Cn1c(C)csc1=O)c1c(N)n(Cc2ccccc2)c(=O)[nH]c1=O	0.8	59.3	2.2	1.4	-68.4	-2.2%
Cc1ccc(C(CC(=O)O)Nc2nc(N3CCOCC3)nc(N3CCOCC3)n2)cc1 (stereo not given)	-2.6	15.8	-18.9	0.8	-15.6	-2.3%
Cc1cc(F)ccc1NCc1ccncc1	0.1	-2.3	-6.8	0.1	19.8	0.2%[38.3 µM]
CC(c1ccco1)N(C(=O)C12CC3(C)CC(C)(CC(C)(C3)C1)C2)c1ccccn1 (stereo not given)	-0.1	3.3	14.9	3.7	-1.8	?
COc1ccc(NC(=O)Cc2c[nH]c3ccccc23)cc1S(=O)(=O)N1CCCCC1	5.0	-13.1	5.2	0.5	2.3	-0.2%
CC12CC3OC3CC1CCC1C2CCC2(C)C1CCC21OCCO1 (stereo not given)	3.7	5.9	-4.2	1.1	-5.7	5.3%
CC1CCCCC1NC(=O)C1CCN(S(=O)(=O)N2CCOCC2)CC1 (stereo not given)	2.3	3.5	-1.7	-0.5	2.0	5.3%[38.3 µM]
CC1=NCCN1CCNC(=O)Nc1ccc(F)cc1	4.5	2.3	14.1	1.7	-1.2	0.0%
Cc1ccc(CNC(=O)c2ccc(NC(=O)N3CCSc4ncccc43)cc2)cc1	/	/	-27.1	0.4	/	-0.3%
Cc1sc(NC(=O)C2CCCC2)c(C#N)c1C	-2.9	7.5	-5.3	-0.5	2.9	2.4%
O=C(CSc1nnc(-c2cccnc2)n1CCc1ccccc1)N1CCCCC1	-2.3	0.0	56.9	0.2	-8.9	-1.3%
Cc1nn(Cc2ccc(F)cc2)c2sc(C(=O)Nc3nccs3)cc12	?	1.4	3.9	2.1	?	12.6%
Cc1ccc(S(=O)(=O)c2nc(-c3ccc(F)cc3)oc2N2CCN(c3ccccc3)CC2)cc1	/	/	61.0	-0.5	/	0.4%

Pulled one by one from above:
Molecule	D2 agonist	Six1-Eya2 blk	TRPML1 blocker	TRPML1 ag	D2 potentiator	PINK1 modulator
Cn1c(SCC(=O)Nc2cccc(Br)c2)nnc1-c1cc2ccccc2o1	-2.1	-0.5	17.3	-0.3	12.7	-1.1%
CC(c1ccco1)N(C(=O)C12CC3(C)CC(C)(CC(C)(C3)C1)C2)c1ccccn1 (stereo not given)	-0.1	3.3	14.9	3.7	-1.8	?

Going on with the list.
Molecule	D2 agonist	Six1-Eya2 blk	TRPML1 blocker	TRPML1 ag	D2 potentiator	PINK1 modulator
COc1ccc(CCC(=O)NCc2cn3ccsc3n2)cc1	-3.5	-1.0	5.9	-0.5	-5.0	/
CCN(CC(=O)Nc1c(F)cccc1F)C(=O)CCCc1nc2ccccc2c(=O)[nH]1	-7.4	-3.7	-3.3	-0.8	-22.6	1.4%
N#CCSc1nnc2ccc3ccccc3n12	-1.0	?	-16.5	0.9	-25.7	0.1%
O=C1CC(c2ccccc2)Sc2ccccc2N1Cc1ccc(F)cc1 (stereo not given)	/	/	31.8	5.6	/	?
O=[N+]([O-])c1ccccc1Oc1ccc(S(=O)(=O)N2CCOCC2)cc1	7.7	-25.7	38.5	0.2	2.6	5.5%
CCCn1c(N)c(N(CCOC)C(=O)COC(=O)CSc2cc(C)c3ccccc3n2)c(=O)[nH]c1=O	-0.3	-2.8	8.0	0.6	-3.4	-1.3%
O=C1C2ON(c3ccccc3)C(c3ccccn3)C2C(=O)N1c1ccc(Br)cc1 (stereo not given)	-3.2	-1.6	-9.1	0.7	-12.6	3.0%
O=c1[nH]c2ccccc2c2nc3ccccn3c12	-7.1	?	4.6	-0.3	-15.3	-3.6%
COc1ccc(NC(=O)COC(=O)c2ccc(Br)o2)cc1OC	-3.0	0.6	-1.8	1.1	-8.7	2.5%
COc1ccc(C2C(C(=O)c3ccco3)=C(O)C(=O)N2CC2CCCO2)cc1OC (stereo not given)	-1.7	7.3	-14.7	0.5	-4.4	-1.2%
CCC(O)C1CCN(Cc2cn(Cc3ccccc3)nc2-c2cc3ccccc3o2)CC1 (stereo not given)	-5.7	2.4	13.2	1.5	-15.2	1.9%
O=C(CNCc1ccccc1)Nc1ccc(F)cc1	-2.9	9.9	15.8	0.1	-9.8	0.5%
COc1cccc(C(CC(=O)NCc2ccco2)NS(=O)(=O)c2ccc(C)cc2)c1OC (stereo not given)	-1.4	-2.4	2.3	1.5	-1.1	3.3%
Cc1ccc(NC(=S)N2CCC(NC(=O)c3ccc(F)cc3)CC2)cc1	0.3	-8.8	-13.1	0.0	-13.7	0.8%
O=S1(=O)CCOC[C@H](CC2CCCCC2)N1Cc1ccc(Cl)cc1	-5.1	8.8	-2.7	2.1&5.4	-3.9	4.5%
O=C(CCn1c(=O)c2ccccc2n(Cc2cccnc2)c1=O)NCc1ccc2c(c1)OCO2	-0.5	8.5	-2.6	-0.2	-5.5	-0.9%
Cc1ccc(C2C(C(=O)c3cc4ccccc4o3)=C(O)C(=O)N2CCN2CCOCC2)o1 (stereo not given)	-4.4	-4.1	-2.0	0.9	-3.8	0.6%
S=c1[nH]c(-c2ccccc2)cn1/N=C/c1cccc2ccccc12	-16.1	-1.1	-9.4	1.6	-29.8	2.5%
CCn1c(SCC(=O)Nc2ccccc2)nc2c(c1=O)SCC2	-1.4	-0.9	-5.8	1.1	-6.2	-0.4%
CCC(Br)C(=O)Nc1ccc(OC)cc1 (stereo not given)	1.1	-1.1	5.4	-0.6	-3.7	-0.1%
Cc1ccc(C(=O)N2CCN(c3ccc(NC(=O)c4cccnc4Cl)cc3)CC2)cc1	-2.0	-9.2	-2.0	0.9	0.2	1.0%
CCOc1ccc(S(=O)(=O)Nc2cccc(-c3ccc(N4CCCC4)nn3)c2)cc1	/	/	16.2	1.3	/	-0.4%
COc1ccc(/C=N/NC(=O)Nc2nonc2N)cc1	-1.5	0.5	22.1	0.3	0.1	2.2%
COc1ccc(/C(C)=N/Nc2ccc(C(=O)O)cc2)cc1OC	3.7	-16.7	0.1	3.4	3.1	8.1%
CCN1CCN(C(=O)C2CC(c3ccc(F)cc3)=NO2)CC1 (stereo not given)	2.9	1.9	7.0	0.1	-0.4	0.9%
O=C1/C(=C/c2cccnc2)Sc2ccccc21	6.0	-8.2	-12.5	3.1	22.8	0.3%
Cc1cc(C(=O)Nc2ccc(Br)cn2)sc1C	-3.2	7.3	5.3	1.0	-19.2	1.4%
Cc1ccccc1NC(=O)Nc1ccccc1N1CCCCC1	-4.3	-1.2	6.1	0.3	-20.6	3.5%
Cc1cccc2cc(CN(CC(C)C)S(=O)(=O)c3ccccc3)c(=O)[nH]c12	-3.0	-1.3	54.4	1.1	-0.8	-0.5%
